Bioassay records (PubChem BioAssay)
Rango complex inh – prevents formation of the Rango-importin beta complex | Potency, µM (highest dose often 92.2 µM), inactives show top-dose inhibition of complex formation | Rango CFP/YFP FRET sensor + importin beta, 45 min | Q14974 | 340,000 compounds, 0.031% hits; active = rising FRET ratio curve, often small or poorly fitted; inconclusive = mostly compound fluorescence or quenching in the first reads; inactive = flat curves in all reads;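 further: potency means the concentration at half of the fitted maximal effect; 0% = DMSO wells and 100% = buffer wells lacking importin beta; nearly all actives have a fitted effect of over 15% in size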
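FRET biosensor Rango (snurportin 1 IBB between N-terminal EYFP and C-terminal Cerulean), 50 nM in PBS/1 mM DTT/0.02% Tween-20/0.1% BSA, preincubated 5 min RT with compound; 0.125 microM importin beta added, 45 min RT, CFP/YFP FRET ratio read.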
Rango dissoc inh – inhibitors of RanGTP-induced Rango-importin beta complex dissociation | O95149+P62826 | Biochemical FRET Rango-importin beta, RanGTP-induced dissociation | Potency, µM (highest dose often 46.1 µM), for the others: at the highest dose activity change, negative = inhibition | 340,000 compounds, 0.071% hits | AID 540253; active means falling FRET ratio curve, often poorly fitted, with flat reads before Ran was added; inconclusive means other falling curves, or compound fluorescence or quenching; inactive means flat or rising ratio curve;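 further: potency means the concentration at half of the fitted maximal effect; % of control where 0% means no effect; nearly all actives have a fitted effect of over 45% in size; -100% = wells without RanGTP and RCC1; the record marks most hits as doubtful in a second field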
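Compounds sat 5 min at room temperature with 0.1 uM Rango biosensor plus 0.25 uM importin beta, then FRET pre-read. RanGTP-RCC1 (0.6 uM Ran, 2mM GTP, 0.2 uM RCC1) added for 45 min, and the CFP/YFP post-read measured blocked complex dissociation.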
GLA inh pH 4.5 – alpha-galactosidase A (human) inhibition, pH 4.5. AID 1467. purified enzyme, 4-MU-alpha-Gal fluorescence, pH 4.5. activity change, negative = inhibition, % at 105 µM. 230,000 tested, under 10 active. P06280; inconclusive = small, poorly fitted or top-dose-only inhibition, or a rising curve; inactive = flat fitted curve, though single readings scatter; no compound was filed as active;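 further: 0% = full activity with enzyme and -100% = basal without enzyme; dose as in the result columns while the protocol names 77 µM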
Target sequence (P06280 whole entry, looked up): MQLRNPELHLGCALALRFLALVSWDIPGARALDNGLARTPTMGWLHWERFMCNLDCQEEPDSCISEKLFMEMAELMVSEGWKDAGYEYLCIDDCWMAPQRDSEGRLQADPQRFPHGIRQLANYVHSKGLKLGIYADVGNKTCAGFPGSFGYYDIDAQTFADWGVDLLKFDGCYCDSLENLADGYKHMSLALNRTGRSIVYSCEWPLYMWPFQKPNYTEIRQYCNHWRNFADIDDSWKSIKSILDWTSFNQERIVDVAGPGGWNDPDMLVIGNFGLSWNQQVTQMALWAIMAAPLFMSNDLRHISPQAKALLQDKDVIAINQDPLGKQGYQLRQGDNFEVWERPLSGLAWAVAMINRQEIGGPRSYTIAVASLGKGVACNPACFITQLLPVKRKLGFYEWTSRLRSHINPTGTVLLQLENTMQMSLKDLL
miR-21 reporter – miR-21 reporter, rising signal. HeLa miR-21 FLuc reporter, luciferase, 48 h. Potency, µM (doses to about 38.3 µM), for the others: top-dose reporter change, positive = more light. 340,000 tested, under 10 active. AID 2288; active = well fitted rising curve with a large enough effect; inconclusive = small, poorly fitted or top-dose-only effect; inactive = no such curve, though single readings can be large or run the other way;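 further: % of control where 0% means no effect; miR-21 action dims this reporter so a rising signal means less miR-21 action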
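Compounds were titrated across several concentrations (up to approximately 40 uM) and incubated 48 hours with HeLa miR-21-FLuc reporter cells (miR-21 target sequence downstream of FLuc, endogenous miR-21). Readout was firefly luciferase luminescence after lytic detection reagent.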
The depositor's hits bear a star; ? = inconclusive; / = no result given; [ ] = another dose, or the depositor's remark. A portion of the library (hit frequency here may not be typical).

Start of the listing, in advance:
SMILES	Rango complex inh	Rango dissoc inh	GLA inh pH 4.5	miR-21 reporter
CN(C)C(CNS(=O)(=O)c1ccc2ccccc2c1)c1ccccc1 (configuration not stated)	3.0%	4.1%	/	-7.8%
CCOC(=O)c1ccc(NS(=O)(=O)c2cc(-c3nnnn3C(C)C)ccc2OC)cc1	5.7%	-0.2%	-0.5	-5.6%

This part in full, from the first entry:
SMILES	Rango complex inh	Rango dissoc inh	GLA inh pH 4.5	miR-21 reporter
CN(C)C(CNS(=O)(=O)c1ccc2ccccc2c1)c1ccccc1 (configuration not stated)	3.0%	4.1%	/	-7.8%
CCOC(=O)c1ccc(NS(=O)(=O)c2cc(-c3nnnn3C(C)C)ccc2OC)cc1	5.7%	-0.2%	-0.5	-5.6%
COc1ccc(NC(=O)CCCOc2ccc(Cl)c(C)c2)cc1S(=O)(=O)N1CCOCC1	0.8%	-20.0%	/	/
CC(C)c1cccc(C(C)C)c1NC(=O)COC(=O)C1=COCCO1	2.8%	7.8%	9.0	1.4%
CCCn1c(=O)c2ccccc2n2c(SCCOc3ccccc3F)nnc12	3.0%	0.5%	2.5	-7.3%
COc1ccc(Cc2nnc(NC(=O)c3ccc(OC)cc3OC)s2)cc1	3.3%	-2.8%	/	-49.9%
CN(C)CCNC(=O)c1cc2cc(Br)ccc2oc1=O	2.9%	0.7%	-2.4	-5.7%
O=[N+]([O-])c1ccccc1S(=O)(=O)Nc1ccc(-c2ccc3nncn3n2)cc1	?	0.6%	/	/
COc1ccccc1Nc1nc(NCCO)c2ccccc2n1	/	/	-1.4	-1.4%
c1ccc(N2CCN(c3nc4ccccc4n4nnnc34)CC2)cc1	?	?	-3.0	-18.5%
COC(=O)c1ccc(NC(=S)NCC2CC2)cc1	0.4%	?	-2.8	-21.5%
Cc1ccc(NC(=O)C2C3C=CC4(CN(Cc5cccnc5)C(=O)C24)O3)cc1 (configuration not stated)	2.7%	-3.9%	-11.1	-41.9%
CCOC(=O)C1CCN(C(=O)c2ccc(S(=O)(=O)Nc3ccccc3OC)cc2)CC1	1.6%	-0.2%	/	/
Cc1cc(Nc2nc3c(c(=O)n(C)c(=O)n3C)n2C)n(-c2ccc(Cl)cc2)n1	0.0%	2.4%	-5.9	-0.3%
COc1ccc(CCN2CC(C(=O)N(C)Cc3ccc(C)o3)CCC2=O)cc1 (configuration not stated)	4.4%	1.4%	/	-41.8%
CNc1nc(-c2ccccc2)nnc1C(F)(F)F	6.1%	0.5%	3.7	-23.4%
O=C(CNc1cc(S(=O)(=O)N2CCCC2)ccc1OCC(F)(F)F)Nc1cccc(C(F)(F)F)c1	0.6%	43.0%	-16.8	25.8%
O=C(NNS(=O)(=O)c1ccccc1)C1CCN(S(=O)(=O)c2ccc(Cl)cc2)CC1	-1.4%	-2.4%	-12.3	-2.6%
Cc1ccc(CNC(=O)c2ccc(N3CCC4(CC3)CC(c3cccc(Br)c3)=NO4)c(NC(=O)c3c(Cl)cccc3Cl)c2)cc1	-4.2%	-6.9%	/	/
CN(C(=O)COC(=O)c1ccccc1SCC(=O)N1CCCC1)C1(C#N)CCCCC1	0.3%	8.8%	/	/
CCOC(=O)CNc1c(-c2ccc(F)cc2)nc2cnccn12	?	?	12.3	-1.4%
O=C(COc1ccccc1)Nc1cc(Cl)ccc1Cl	-3.5%	2.3%	/	-20.2%
O=C1c2cccc3c([N+](=O)[O-])ccc(c23)C(=O)N1c1nccs1	?	?	2.8	?
CCOC(=O)c1c(N)sc2c(O)c(Br)ccc12	4.8%	-5.2%	-23.0	-28.5%
Cc1ccc(Nc2nnc(SCC(=O)NC3CC3)s2)cc1	-1.1%	-14.2%	/	/
(further entries)
SMILES	Rango complex inh	Rango dissoc inh	GLA inh pH 4.5	miR-21 reporter
Cc1ccc(C(=O)C(C)Oc2ccc3ccc(=O)oc3c2)cc1 (configuration not stated)	0.1%	-2.2%	/	-16.6%
Cc1ccc(S(=O)(=O)c2nnn3c2nc(N2CCCCC2)c2ccccc23)cc1	4.9%	2.5%	-4.7	-7.1%
CC(=O)Nc1ccc(C(=O)N2CCCc3ccccc32)cc1	-0.1%	-1.7%	/	-2.5%
Cc1[nH]c(-c2ccc(F)cc2)cc1C(=O)N1CCN(c2ccccc2)CC1	-3.5%	9.6%	/	18.6%
O=C(CN1CCN(C(=O)c2ccccc2F)CC1)Nc1ccc(Br)cc1	0.7%	0.2%	-14.2	8.5%
CCOc1ccccc1N(CC(=O)Nc1c(C)n(C)n(-c2ccccc2)c1=O)S(=O)(=O)c1ccccc1	5.8%	12.4%	-1.0	-1.6%
O=C(CCC(=O)c1ccc(F)cc1)Nc1cccc(S(=O)(=O)Nc2cccc(Cl)c2)c1	-2.6%	12.8%	18.2	17.4%
COc1cc(C(=O)NCc2nnc(SCC(=O)Nc3nc4ccc(C)cc4s3)o2)cc(OC)c1OC	-1.0%	2.4%	-1.3	-20.5%
Cc1cccc(-n2ncc3c(NCCc4ccc(S(N)(=O)=O)cc4)ncnc32)c1	-4.5%	-7.3%	3.8	10.6%
COC(=O)c1sccc1NC(=O)Nc1cccc([N+](=O)[O-])c1	-0.9%	-4.4%	/	-1.4%
Cc1ccc(NC(=O)Nc2nc3ccc(S(C)(=O)=O)cc3s2)cc1	-0.3%	-0.8%	/	/
Cc1ccc([N+](=O)[O-])cc1S(=O)(=O)N(C(=O)c1ccncc1)c1ccc2oc3c(c2c1)CCCC3	2.4%	-4.2%	-10.9	-6.6%
CC(=O)Oc1ccc(/C=C2\N=C(C3CCCCC3)OC2=O)cc1	?	-19.6%	0.9[21.1 µM]	2.1%
COc1cccc2sc(Nc3nc4ccc(NC(C)=O)cc4s3)nc12	-0.1%	-21.3%	6.2	8.4%
C/C=C/c1ccc(OCC(O)CN2CCCCCCC2)c(OC)c1 (configuration not stated)	5.2%	0.5%	-4.0	-4.7%
CCCOc1ccc(Br)cc1CSC(=N)N	-0.5%	-5.8%	-3.5	?
CCOC(=O)Cc1csc(NC(=S)NC(=O)c2cc(OC)c(OC)c(OC)c2)n1	0.0%	5.4%	1.0	1.7%
O=C(Oc1cccc(Cl)c1)N1CCOCC1	4.1%	-3.1%	/	2.8%
Cc1csc(=O)n1CCC(=O)OCC(=O)Nc1ccc(Cl)cn1	-0.3%	-14.3%	/	/
CCN1CCc2nc3ccccc3c(C(=O)Nc3ccc(C#N)cc3)c2C1	0.2%	-8.8%	0.5	-3.2%
CCOc1ccc(C(C)=O)cc1COC(=O)c1cc([N+](=O)[O-])ccc1N1CCOCC1	-0.8%	39.1%	/	/
COc1cccc(/C=N/NC(=O)CNC(=O)c2ccc(S(=O)(=O)N3CCCC3)cc2)c1OC	-3.2%	2.0%	0.1	0.7%
CCOc1ccc(C(=O)NCC2CCCO2)cc1 (configuration not stated)	2.5%	?	4.1	-38.5%
Cc1cccc(N(CC(=O)NCc2ccc(F)cc2)C(=O)c2csnn2)c1C	-1.0%	2.3%	0.2	6.7%
O=C(CSc1nc(O)c(C2CCCCC2)c(=O)[nH]1)NCC1CCCO1 (configuration not stated)	0.3%	1.3%	-3.7	-2.8%
Remaining list, next part
SMILES	Rango complex inh	Rango dissoc inh	GLA inh pH 4.5	miR-21 reporter
CCn1c(=NC(=O)CS(=O)(=O)c2ccc(C)cc2)sc2cccc(OC)c21	-0.6%	-0.6%	/	/
CC(=O)Nc1cccc(NC(=O)Nc2ccc(F)cc2F)c1	-5.3%	-11.6%	-6.3	2.1%
Cc1ccc(N2CC(C(=O)N3CCN(c4ccccn4)CC3)CC2=O)cc1 (configuration not stated)	-1.2%	3.5%	/	/
CCNC(=O)CC1C(=O)N(c2ccc(OC)cc2)C(=O)N1Cc1ccc(OC)cc1 (configuration not stated)	-1.5%	3.6%	8.7	-17.4%
O=C1CCC(C(=O)N2CCSCC2)CN1CCc1ccccc1 (configuration not stated)	11.0%	0.9%	/	0.8%
Cc1nnc(NC(=O)CSc2nnc(CCc3nc4ccccc4[nH]3)n2C)s1	-2.0%	2.9%	10.1	0.7%
CC1C(=O)N2CCCc3cc(NC(=O)C4CC4)cc1c32 (configuration not stated)	-5.5%	-4.0%	/	/
O=C(c1ccco1)c1coc2c1cc(O)c1ccccc12	-0.5%	12.0%	9.5	-49.0%
C=CCC[C@H](Cc1ccc(F)cc1)C(=O)OC[C@@H](Cc1c[nH]c2ccccc12)NC(=O)[C@H](CC=C)CC(=O)NCCO	-2.3%	-1.2%	/	/
CC1(C)C2CCC1(C)C(Nc1ccccc1)C2 (configuration not stated)	1.1%	-0.3%	-1.6	0.5%
CCOc1ccc(C2CC(=O)NC2=O)cc1 (configuration not stated)	0.1%	-9.9%	/	-0.7%
CCOC(=O)NNC(=O)NCCCCCCNC(=O)NNC(=O)OCC	0.2%	-9.0%	-0.9	0.7%
COCCN(Cc1ccccc1)C(=O)c1cccc(S(=O)(=O)N2CCN(c3ccc(F)cc3)CC2)c1	1.5%	-22.6%	/	/
Cc1sc2nc(CSc3ccccc3)nc(N3CCC(C(N)=O)CC3)c2c1C	0.3%	11.6%	-4.5	8.1%
CNC(=S)NNC(=O)c1oc2nc(-c3ccccc3)cc(-c3ccco3)c2c1N	?	?	-12.1	-0.6%
O=C(CCSc1nc(-c2ccc3c(c2)OCO3)cc(C(F)(F)F)n1)NCc1ccco1	-0.8%	-15.7%	18.0	-0.1%
Cc1ccc(S(=O)(=O)NCCC(=O)NNC(=O)COc2ccccc2Cl)cc1C	0.2%	-8.9%	/	/
CC(C)N1C(=O)S/C(=C/c2ccccc2OCc2ccc(C(=O)O)cc2)C1=O	-0.4%	-4.0%	1.3	-22.2%
CCN1C(=O)C(CC(=O)NC2CCCCC2)N(CC)C1=O (configuration not stated)	-0.1%	4.0%	-2.2	-0.6%
COc1cccc(/C=C/C(=O)NCc2cn3cc(Cl)ccc3n2)c1	4.7%	0.5%	-3.2	-11.1%
Cc1nn(-c2ccccc2)c2sc(C(=O)N(CC(=O)NC3CCCC3)Cc3ccco3)cc12	-0.5%	11.9%	2.8	-0.8%
O=c1[nH]c(CN2CCCC2)nc2sc3c(c12)CCC3	0.0%	-7.9%	14.4	-2.5%
C=CC[n+]1c(-c2ccc(OCC)cc2)csc1NNC(=O)Nc1ccccc1	5.4%	-9.5%	3.1	19.6%
O=C(O)CCC(=O)NNc1ncnc2ccccc12	2.1%	6.1%	-1.3	-46.1%
COc1ccc(NC(=O)C2c3cc(OC)c(OC)cc3C(=O)N(C)C2c2cccnc2)cc1OC (configuration not stated)	0.3%	2.7%	1.6	-2.4%
(listing goes on)
SMILES	Rango complex inh	Rango dissoc inh	GLA inh pH 4.5	miR-21 reporter
S=C(NCC1CCCO1)Nc1cccc(Cl)c1 (configuration not stated)	-3.4%	5.9%	-22.1	-11.3%
CC1CCN(C(=O)COC(=O)C2CCN(S(=O)(=O)c3ccc4c(c3)OCCO4)CC2)CC1	-0.6%	?	/	/
O=C(Cc1cccs1)N1CCN(c2cccc(Cl)c2)CC1	0.6%	-6.7%	9.7	-21.3%
COc1cc(C(c2c(C)[nH][nH]c2=O)c2c(C)[nH][nH]c2=O)ccc1OC(C)C	-1.3%	-2.9%	-9.7	-15.9%
CCOC(=O)[C@@H]1[C@H]2COc3cc(OC)ccc3[C@H]2N2C(=O)N(c3cccc(F)c3)C(=O)[C@]12C	?	5.1%	/	/
COc1ccc(OC)c(-c2nnc(SCC(=O)N3CCOCC3)o2)c1	-3.2%	17.1%	-0.4	-13.7%
COc1cc(/C=N/Nc2nc(Nc3ccccc3)nc(N3CCOCC3)n2)ccc1OC(=O)c1ccco1	-3.1%	8.8%	-4.9	-15.6%
Cc1c(OCC(=O)N2CCC(C(=O)O)CC2)ccc2c3c(c(=O)oc12)CCC3	5.1%	10.4%	/	-2.5%
COc1ccc(CC(=O)Nc2ccc(F)c(F)c2F)cc1S(=O)(=O)N1CCOCC1	-4.3%	-4.5%	/	/
CN1N=C(C(C)(C)C)CSC1=Nc1ccccc1	1.9%	1.5%	-3.5	-6.5%
